Compound activity (PubChem)
Beta2AR agonist: beta2AR agonists driving receptor internalization, primary screen, cell-based, FAP fluorogen, flow cytometry. Beta-2 adrenergic receptor (Homo sapiens), P07550. Am2.2-beta2AR cells; reference of the scale not given here. response, % (no concentration beside the values). 340,000 compounds, 0.43% hits. AID 504454, 2011;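 active = response above a set limit, near 3 SD of response in nonfluorescent compounds, cut at about 42% in these data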;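 also: stock transfer was 100 nL into about 11 µL; a reference agonist was the positive control; negative values mostly stem from fluorescent compounds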
Target sequence (P07550 whole entry, looked up): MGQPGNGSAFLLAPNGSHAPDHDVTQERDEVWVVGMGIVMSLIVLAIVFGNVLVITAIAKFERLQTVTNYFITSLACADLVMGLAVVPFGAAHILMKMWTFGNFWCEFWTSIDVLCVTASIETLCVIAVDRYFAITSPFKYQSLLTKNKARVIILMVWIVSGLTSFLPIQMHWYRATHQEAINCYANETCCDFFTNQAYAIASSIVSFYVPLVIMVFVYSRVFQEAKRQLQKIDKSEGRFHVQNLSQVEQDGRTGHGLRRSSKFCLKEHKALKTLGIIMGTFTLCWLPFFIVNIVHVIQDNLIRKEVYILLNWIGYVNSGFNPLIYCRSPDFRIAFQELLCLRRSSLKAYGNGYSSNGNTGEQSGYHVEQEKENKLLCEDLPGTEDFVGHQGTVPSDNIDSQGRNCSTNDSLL
LANA-H2A inh: blockers of LANA interaction with H2A/H2B – biochemical, FP readout, HTS, primary screen; Protein LANA1 (Human herpesvirus 8 type P (isolate GK18)), Q9QR71; cell-free LANA-H2A/H2B peptide, fluorescence polarization; 320,000 compounds, 0.6% hits; inhibition, % (concentration not given with the values); AID 2629, 2010; in the data active = inhibition mostly above about 10%, no sharp cut-off; inactive = mostly below about 6.7%;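 also: stock transfer was 7.5 nL into about 10 µL; 0% = median of vehicle wells and 100% = median of positive control wells; one replicate is shown; the record names a cut of 25% in any replicate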
FGF22 binding: binders of human FGF22 protein, primary screen, FGF22 synaptogenesis inhibitor project, biophysical, thermal shift, single point; 340,000 compounds, 1.5% hits; AID 651658, 2012; calls only at 9.99 µM; recombinant FGF22 thermal shift, SYPRO orange fluorescence; percent of sucrose octasulfate shift, DMSO zero;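 active = melting point raised past a set limit in the mean and every replicate; three in four hits are not shown here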
HNF4A DNA FP: change in binding of human HNF4A to DNA, primary screen, biochemical, fluorescence polarization, FITC-DNA. Hepatocyte nuclear factor 4-alpha (Homo sapiens), P41235. 1 h. activity change, % at 10 µM. 360,000 compounds, 0.3% hits. AID 1224865, 2016; in the data active = activity change above about 30%, passing the limit was not always enough;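 also: controls were the assay level and a saturating level of protein; the project sought stronger binding though the title names inhibitors; some compounds called inactive have numbers as strong as hits; positive values seem to mean higher polarization but the record does not say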
UCH37 DUB inh: inhibitors of human UCH37 deubiquitinase, primary screen, biochemical, Ub-AMC cleavage, fluorescence; inhibition, % (no concentration beside the values); purified proteasome/UCH37; 330,000 compounds, 0.33% hits; Ubiquitin carboxyl-terminal hydrolase isozyme L5 (Homo sapiens), Q9Y5K5; AID 588478, 2011;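 active = mean of two replicates above 20%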;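 also: 0% = compound-free wells with enzyme and 100% = wells lacking proteasome; stock transfer was 100 nL into about 20 µL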
Target sequence (Q9Y5K5 whole entry, looked up): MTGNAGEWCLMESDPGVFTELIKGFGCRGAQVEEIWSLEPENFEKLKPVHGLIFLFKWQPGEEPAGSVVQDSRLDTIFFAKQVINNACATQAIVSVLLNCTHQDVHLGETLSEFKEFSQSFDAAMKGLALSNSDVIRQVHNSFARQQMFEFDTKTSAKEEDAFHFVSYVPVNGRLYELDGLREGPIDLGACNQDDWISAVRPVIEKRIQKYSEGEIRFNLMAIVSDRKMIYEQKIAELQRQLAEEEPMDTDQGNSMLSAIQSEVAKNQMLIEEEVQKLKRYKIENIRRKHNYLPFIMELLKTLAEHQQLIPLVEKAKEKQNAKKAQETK
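Reagent: Ub-AMC substrate; assay system: Proteasome-associated human UCH37 deubiquitinase; controls: no-proteasome and no-compound wells; read-out: % inhibition of Ub-AMC cleavage fluorescence; timing: 30 min preincubation with enzyme, 25 min cleavage at room temperature; signal: AMC fluorescence from Ub-AMC cleavage, excitation 355 nm, emission 460 nm; buffer or medium: Tris-HCl pH 7.4 plus ovalbumin, ATP-MgCl2, DTT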
Ecoli growth: E. coli growth inhibition, primary screen, OD600; Escherichia coli growth, 23 h; stronger effect = lower value; OD600 absorbance (concentration not given with the values); 330,000 compounds, 0.21% hits;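 active = OD600 absorbance below the run mean of sample wells minus 3.6 SD, in any replicate, cut at about 0.56 in these data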;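 also: stock transfer was 300 nL into about 60 µL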
ALR inh: inhibitors of human ALR sulfhydryl oxidase, primary screen, biochemical, H2O2 detection, HRP-luminol luminescence, single point; FAD-linked sulfhydryl oxidase ALR (Homo sapiens), P55789; purified ALR, DTT oxidation; inhibition, % (concentration not given with the values); 290,000 compounds, 3.8% hits; AID 485317, 2010;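 active = mean and each replicate at 75% or more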;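 also: stock transfer was 7.5 nL into about 7.5 µL; 0% = neutral wells and 100% = wells with inactivated enzyme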
Target sequence (P55789 whole entry, looked up): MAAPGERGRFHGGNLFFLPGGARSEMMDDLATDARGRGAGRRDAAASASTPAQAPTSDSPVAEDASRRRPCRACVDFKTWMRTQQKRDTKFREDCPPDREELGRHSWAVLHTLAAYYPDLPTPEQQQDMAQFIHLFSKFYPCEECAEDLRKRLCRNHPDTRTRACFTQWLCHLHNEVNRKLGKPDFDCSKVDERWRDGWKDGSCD
The depositor's hits bear a star; i = inactive; . = not tested or not shown.

Values run as follows: Ecoli growth	ALR inh	LANA-H2A inh	UCH37 DUB inh	FGF22 binding	Beta2AR agonist	HNF4A DNA FP
> O=[N+]([O-])c1cccc(-c2cc(-c3cc(Br)ccc3O)[nH]n2)c1
→ 0.67	-4	-0.7	1.8	i	16	-0.3
> Cc1ccc(-c2csc(C3C(N)=NC(S)=C(C#N)C34CCCCC4)n2)cc1 (stereo unspecified)
→ 0.7	.	-1.3	1.3	.	2	3.1
> COc1ccc(CCNC(=O)c2cc(=O)[nH]c3ccc(Br)cc23)cc1OC
→ 0.67	-1	-7.2	2.7	i	-2	0.4
> CC1(C)N=C(c2ccccc2)C(c2ccccc2)=N1
→ 0.67	.	.	0.2	i	-1	-2.1
> CC(C)c1nnc(NC(=O)CCCCCN2C(=O)C3C4C=CC(C4)C3C2=O)s1 (stereo unspecified)
→ 0.72	.	-2.7	3.4	i	-13	0.7
> CCOc1ccc(S(=O)(=O)Nc2ccc(C(=O)NCc3ccncc3)cc2)cc1
→ 0.68	2	1.5	-0.1	i	-5	1.5
> O=C(Nc1ccc(C(=O)O)cc1)/C(=C\c1ccco1)NC(=O)c1ccc(Br)o1
→ 0.66	68	3.0	14	i	-1	-4.7
> Cc1cc(NC(=O)CSc2nnc(-c3ccccc3F)n2N)no1
→ 0.63	-10	4.4	-0.1	i	1	2.5
> Nc1cc(=O)[nH]c(SCc2nc3ccccc3n2Cc2ccccc2)n1
→ 0.68	0	2.3	2.3	i	5	5.3
> COc1ccc(N(Cc2ccccc2)N=O)cc1
→ 0.67	.	-0.6	3.0	i	3	-1.0
> Fc1cccc(/C=C2\CCCC3=C2NC(=S)NC3c2cccc(F)c2)c1 (stereo unspecified)
→ 0.67	7	3.6	4.0	i	-1	-1.4
> O=C(O)CNS(=O)(=O)Cc1ccccc1
→ 0.71	.	-5.1	0.9	i	9	1.5
> c1cncc(CNc2ncnc3ccc(-c4ccc5c(c4)OCCO5)cc23)c1
→ 0.67	0	-1.2	-2.6	i	-7	1.4
> COc1ccc(OC)c(NC(=O)COC(=O)c2c(C)noc2C)c1
→ 0.7	-14	4.2	-1.4	i	6	1.0
> O=C(C1CC1)N1CCN(Cc2ccccc2)CC1
→ 0.69	4	-8.4	0.1	i	-1	-3.6
> CCOC(=O)N/N=C(/c1ccccc1)C1CCCCC1
→ .	0	13	.	i	-6	-3.2
> O=C(O)C1C2C=CC(C2)C1C(=O)Nc1cccc(F)c1 (stereo unspecified)
→ 0.71	-6	0.7	2.8	.	-3	-2.0
> CCN(C(=O)COC(=O)COc1ccc(Cl)c(C)c1)C1CCS(=O)(=O)C1 (stereo unspecified)
→ 0.7	0	0.4	4.0	i	3	1.0
> COc1ccccc1NC(=O)Nc1c(C)nn(C)c1C
→ 0.7	-1	-1.3	-0.4	i	2	-1.2
> COc1cc(NS(=O)(=O)c2ccc(NC(=S)NC(=O)c3sc4ccccc4c3Cl)cc2)ncn1
→ 0.72	6	.	5.4	.	14	-17
> Cc1cc(C)cc(OCC(=O)OCC(=O)Nc2cc(C)nn2-c2ccccc2)c1
→ 0.63	2	-0.9	-5.2	i	9	0.9
> Cc1ccc(NC2C(=O)NC(=O)NC2=O)cc1
→ 0.63	.	.	80*	i	7	-1.3
> O=C(c1cccc([N+](=O)[O-])c1)n1nc(-c2ccccc2)nc1NCc1ccccc1
→ 0.73	-4	.	1.3	.	14	0.1
> O=C(/C=C/c1cccs1)NC(=S)Nc1ccc(C(=O)O)cc1
→ .	.	7.4	.	i	18	4.0
> COc1ccc(-c2oc(=O)c3cc(OC)c(OC)cc3c2/C=C/c2ccc(F)cc2)cc1
→ 0.84	-1	5.7	5.2	i	-10	2.4
> CC(Cc1ccccc1)C(=O)N1CCN(C)CC1 (stereo unspecified)
→ 0.7	-6	4.0	-1.3	i	2	4.0
> Cc1ccc(N=Cc2cccc(O)c2O)c(C)c1
→ 0.61	-7	-4.3	4.2	.	4	-1.0
> CC/C(C)=N/NC(=S)NCc1ccco1
→ .	68	2.2	.	.	-2	4.7
> COC(=O)C1=C(C(=O)OC)[C@@H]2N(Cc3ccccc3)c3ccccc3[C@@]23C[C@@H](C(=O)OC)N(C(C)=O)C3=N1
→ .	-1	2.3	0.2	i	7	0.8
> CCCNC(=O)Cn1c(=O)oc2ccccc21
→ 0.8	.	-4.6	4.6	.	2	-1.5
> Cc1ccc(CS(=O)Cc2ccc(C(=O)N3CCN(c4ccccc4)CC3)o2)cc1 (stereo unspecified)
→ 0.71	94*	-0.9	1.2	i	-3	-3.4
> CN1OC[C@@H]2CN(Cc3ccc(Cl)cc3)[C@H](c3cccc(Br)c3)C[C@@H]21
→ .	.	.	.	i	9	-0.5
> CCc1sc(N(C(=O)Cc2ccccc2)c2cccc(F)c2)nc1-c1ccc(C)cc1
→ 0.73	1	1.6	4.7	.	7	1.5
> Oc1ccc(N2CCN(Cc3cc4c(cc3Br)OCCO4)CC2)cc1
→ 0.64	92*	-2.0	6.2	i	2	0.7
> CSc1ccccc1NC(=O)CN(C)Cc1cc(=O)n2ccsc2n1
→ 0.7	.	-3.2	-0.5	i	-8	0.8
> CCOC(=O)c1sc(N2C(=O)C(O)=C(C(=O)c3ccco3)C2c2cccc([N+](=O)[O-])c2)nc1C (stereo unspecified)
→ 0.6	91*	1.7	-19	i	1	0.8
> N#Cc1nc(-c2cccc(Cl)c2)oc1NCc1cccnc1
→ 0.66	19	-0.7	-203	.	1	-2.6
> S=c1[nH]nc(-c2ccc(Cl)cc2)n1/N=C/c1ccco1
→ .	16	-3.6	.	i	4	-2.2
> O=S(=O)(c1ccc(Oc2ccc(F)c(Cl)c2)nc1)N1CCOCC1
→ .	3	2.2	.	.	-8	-3.8
> O=C(C#Cc1ccccc1)c1cccc([N+](=O)[O-])c1
→ .	2	2.7	.	i	67*	-2.4
> COc1ccc(C2(NC(C)=O)CCN(C(=O)c3cccs3)CC2)cc1
→ 0.68	-3	6.1	3.3	.	-6	-1.3
> Cc1ccccc1NC(=O)C1CCCN(c2ncnc3onc(-c4ccc(F)cc4)c23)C1 (stereo unspecified)
→ 0.74	0	-1.1	-1.2	i	1	3.9
> CCOC(=O)C(=O)Nc1ccc(F)cc1
→ 0.76	-1	-2.2	-0.4	.	4	1.0
> Cc1ccc(C(=O)N/N=C/c2ccc(-c3cccc(C(F)(F)F)c3)o2)cn1
→ .	-8	-6.2	.	i	14	-1.4
> O=S(=O)(CCN1CCN(c2ccccn2)CC1)c1ccc(Cl)cc1Cl
→ 0.66	5	0.4	0.6	i	-6	-2.3
> O=C(NCc1cccnc1)C1CCC(c2ccc(Cl)cc2)CC1 (stereo unspecified)
→ 0.64	-7	-6.7	1.4	i	-8	1.4
> O=C(O)CSCC(=O)NCc1ccccc1Cl
→ 0.63	3	-0.7	-0.2	i	8	-1.6
> COc1ccc(N2C(=O)c3ccccc3NC23CCCCC3)cc1
→ 0.73	-4	3.1	-266	i	2	-0.1
> Cc1cc(NC2CCCCC2)nc(NCc2ccccc2)n1
→ 0.58	-8	-16	2.2	i	30	0.9
> CCC(C)Oc1cccc(C(=O)Nc2ccccc2N2CCOCC2)c1 (stereo unspecified)
→ 0.73	1	0.0	4.0	.	-3	-2.3

Complete entries, looked up by structure.
`CCC(C)Oc1cccc(C(=O)Nc2ccccc2N2CCOCC2)c1` (stereo unspecified) as listed: Ecoli growth: 0.73; ALR inh: 1; LANA-H2A inh: 0.0; UCH37 DUB inh: 4.0; FGF22 binding: .; Beta2AR agonist: -3; HNF4A DNA FP: -2.3
`COc1ccc(N2C(=O)c3ccccc3NC23CCCCC3)cc1` as listed: Ecoli growth: 0.73; ALR inh: -4; LANA-H2A inh: 3.1; UCH37 DUB inh: -266; FGF22 binding: i; Beta2AR agonist: 2; HNF4A DNA FP: -0.1

Next section:
Values run as follows: Ecoli growth	ALR inh	LANA-H2A inh	UCH37 DUB inh	FGF22 binding	Beta2AR agonist	HNF4A DNA FP
> CCc1ccc(C(=O)CN(C#N)c2nc(C)cc(C)n2)cc1
→ 0.71	5	-1.0	3.0	.	0	-1.8
> COc1ccccc1C(CNc1nc(C(F)(F)F)nc2ccccc12)N(C)C (stereo unspecified)
→ 0.65	0	-2.4	5.8	i	3	1.3
> CC(C)CCNC(=O)C1CC(c2ccc(C(F)(F)F)cc2)=NO1 (stereo unspecified)
→ 0.7	10	5.6	-4.8	i	-5	-3.6
> O=C(CCC1CCCC1)NCc1cccs1
→ 0.71	-5	-2.5	-1.0	.	1	0.3
> O=C(NCCc1ccc(F)cc1)c1cc([N+](=O)[O-])ccc1N1CCOCC1
→ 0.66	-4	-0.3	7.6	i	-15	-0.7
> CC1(C)CC(NC(=O)C(F)(F)F)CC(C)(C)N1OC(=O)c1ccco1
→ 0.7	-9	-1.2	0.9	.	12	-1.9
> CCOc1ccccc1N1CCN(S(=O)(=O)c2cccs2)CC1
→ 0.7	26	-2.4	3.8	i	5	-3.1
> OCCC1CN(Cc2nc3ccccc3s2)CCN1C1CCCC1 (stereo unspecified)
→ 0.67	-5	-3.7	1.5	i	-5	-4.4
> CCN(CC(=O)Nc1ccc(OC)cc1)C(=O)c1cc([N+](=O)[O-])ccc1N1CCOCC1
→ 0.68	-15	-20	7.6	i	4	-1.4
> CC1CC(C)(C)NC(=S)N1CCCC(=O)NCCc1ccc(Cl)cc1 (stereo unspecified)
→ 0.69	-18	-1.0	-0.4	i	-4	1.9
> CN(C)CCN(C(=O)CN1C(=O)c2ccccc2C1=O)c1nc2cc3c(cc2s1)OCO3
→ 0.68	3	0.3	0.5	i	-7	-2.7
> CN(C)c1ccc(/C=N/NC(=O)CNC(=O)c2ccc3c(c2)OCCO3)cc1
→ .	98*	25*	.	i	0	1.1
> CC(NC(=O)c1ccncc1)c1ccc(Br)cc1 (stereo unspecified)
→ 0.66	.	-19	-1.4	i	-6	-1.9
> CCOc1cc(C(=O)NCc2ccc(C)cc2)ccc1OCC(=O)N1CCOCC1
→ 0.69	1	2.8	3.0	i	6	-3.3
> O=C(OCCN1C(=O)c2ccccc2C1=O)c1cccc(OC(F)F)c1
→ 0.78	2	-3.2	0.9	.	5	-1.3
> Cc1ccsc1/C=N/NC(=O)c1nnn(-c2nonc2N)c1CSc1ccccc1
→ .	-2	1.0	.	i	3	-7.7
> O=C1c2ccccc2S(=O)(=O)c2cc(N3CCOCC3)ccc21
→ 0.72	-2	2.3	-1.2	.	-2	45*
> CN(CC(=O)NC1CCCCC1)S(=O)(=O)c1cccc2cccnc12
→ 0.74	90*	4.5	4.1	i	-4	-1.1
> Cc1cc(C)c2c(-n3cccc3)c(C(=O)O)sc2n1
→ 0.7	2	-3.6	3.6	.	-2	0.0
> CCOc1ccccc1NC(=O)CCc1c(C)nn(-c2ccc(N3CCCCC3)nn2)c1C
→ 0.68	-5	-3.3	2.3	i	-11	0.0
> CCc1ccc(NS(=O)(=O)c2cc(OC)ccc2OC)cc1
→ 0.71	-2	-0.8	1.1	i	-6	1.6
> COc1ccc(/C=C/c2nc3ccccc3c(=O)n2-c2cccc(C(=O)O)c2)cc1
→ 0.68	25	-5.6	-2.9	i	-22	0.4

Not all compounds are listed (hit frequency here may not be typical).
